gsp agonist: activates gsp, the McCune-Albright syndrome mutation. gsp mutant cells, cAMP HTRF, 30 min; control for the full effect not named in the record. AID 624287. Potency, µM (series often up to 76.9 µM), without a hit: top-dose activation (cAMP increase), usual class: activators. hit rate 0.13% among 340,000; active = well fitted activation curve with a large enough effect; inconclusive = small, poorly fitted or top-dose-only effect, or another doubt; inactive = no such curve, though single readings can be large or run the other way; cell line not stated here;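 note: phosphodiesterase inhibitor Ro 20-1724 added with compounds to block cAMP breakdown; potency is the fitted concentration of half-maximal effect; nearly all actives have a fitted effect of over 60% in size; about a fifth of the inactives were tested at one dose only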
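Cells stably selected in G418 were plated at 2000/well, grown 16-24 hr, then given compounds in DMSO with the PDE inhibitor […] (300 uM solution added) for 30 min at 37C; cAMP was read by HTRF.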
Menin MLL FP FL: menin-MLL binding inhibition, fluorescein peptide; Fluorescence polarization, fluorescein-MLL peptide displacement from menin; AID 1766; 290,000 tested, under 10 active; FP activity change, % at 61.4 µM; inconclusive = falling polarisation curve, or a change in total fluorescence; inactive = total fluorescence flat and polarisation flat or rising; no compound was filed as active; the % refers to the polarisation; negative = inhibition;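 note: % of control where 0% means no effect; inhibitors lower the polarisation; unlabelled MLL peptide was the positive control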
ClpP mod: qHTS Assay for Activators of ClpP. ATP-dependent Clp protease proteolytic subunit (Bacillus subtilis (strain 168)), P80244. purified B. subtilis ClpP, FRET peptide cleavage, 20 min. Potency, µM (doses to about 57.5 µM), for inactives: top-dose activity change, negative = active. hit rate 1.9% among 340,000. AID 651965, 2013; active = well fitted falling curve with a large enough effect; inconclusive = small, poorly fitted or top-dose-only effect; inactive = no such curve, though single readings can be large or run the other way; note: potency is the fitted concentration of half-maximal effect; the source files actives as falling curves though it sought activators and does not explain the sign; nearly all actives have a fitted effect of over 65% in size; many hits overshoot -100%
Target sequence (P80244 whole entry, looked up): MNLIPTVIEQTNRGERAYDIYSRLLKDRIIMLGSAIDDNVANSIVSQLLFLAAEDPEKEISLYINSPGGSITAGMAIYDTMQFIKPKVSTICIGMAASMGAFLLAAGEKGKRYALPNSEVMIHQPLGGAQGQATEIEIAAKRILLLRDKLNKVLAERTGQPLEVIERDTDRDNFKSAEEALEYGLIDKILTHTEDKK
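Purified B. subtilis ClpP, 10 microg/mL final in Tris/HCl pH8 with KCl, BSA, glycerol and Tween-20, cleaved an Abz/nitrotyrosine-quenched decapeptide. Fluorescence (ex 320, em 430) was read at 0 and 20 min at room temperature. Delta was normalized to 5.8 microM ADEP and DMSO/no-enzyme controls.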
gsp antagonist: antagonists of gsp mutant (McCune-Albright syndrome) | gsp-mutant cells, cAMP HTRF, 30 min; control for the full effect not named in the record | Potency, µM (series often up to 76.9 µM), for inactives: top-dose activity change, negative = inhibition, hits mostly inhibitors | hit rate 0.4% among 340,000 | AID 624288; active = falling curve of any shape with a large fitted effect; inconclusive = falling curve, mostly with a smaller effect; inactive = flat or rising curve; cell line not stated here;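 note: intracellular cAMP measured with PDE inhibitor Ro 20-1724 present during compound exposure; potency is the fitted concentration of half-maximal effect; % is set by controls: 0 for no effect and ±100 for the full control effect; nearly all actives have a fitted effect of over 65% in size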
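Cells, 2000/well, grown 16–24 h in DMEM 10% FBS with 0.5 mg/ml G418, then compounds plus […] (300 uM addition stock), 30 min at 37C. cAMP read by HTRF (cAMP-d2 and anti-cAMP antibody-K in lysis buffer) after 30 min RT.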
TRPML1 blocker: human mucolipin-1 channel inhibition | activity change, negative = inhibition, % (test concentration not listed) | TRPML1-inducible cells, Ca2+ dye fluorescence, FDSS; hits give low values; inhibition of EC80 agonist-evoked calcium signal | Q9GZU1 | hit rate 0.02% among 390,000; in the data active means activity change below about -50%; inconclusive means about -30% to -50%; inactive means above about -30%;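 note: stimulus is agonist 54-4 at its EC80 concentration; % is set by controls: 0 for no effect and ±100 for the full control effect; compound concentration not given in the record; the text of the record puts the active cut at -80%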
Target sequence (Q9GZU1 whole entry, looked up): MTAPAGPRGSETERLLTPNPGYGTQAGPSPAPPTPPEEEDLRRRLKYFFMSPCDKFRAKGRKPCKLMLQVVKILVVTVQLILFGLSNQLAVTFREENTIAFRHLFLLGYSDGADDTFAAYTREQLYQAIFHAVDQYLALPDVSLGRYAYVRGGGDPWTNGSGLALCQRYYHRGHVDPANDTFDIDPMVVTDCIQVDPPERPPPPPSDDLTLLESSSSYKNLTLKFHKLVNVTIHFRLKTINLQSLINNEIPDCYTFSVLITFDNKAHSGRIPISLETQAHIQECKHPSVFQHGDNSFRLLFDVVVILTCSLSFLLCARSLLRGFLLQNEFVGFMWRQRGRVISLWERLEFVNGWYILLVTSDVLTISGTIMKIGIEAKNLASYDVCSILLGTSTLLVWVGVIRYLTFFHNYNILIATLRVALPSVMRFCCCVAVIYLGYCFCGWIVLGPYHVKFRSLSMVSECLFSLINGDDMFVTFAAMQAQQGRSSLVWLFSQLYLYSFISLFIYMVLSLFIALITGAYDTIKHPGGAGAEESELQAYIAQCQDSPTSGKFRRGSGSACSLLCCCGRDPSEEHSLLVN
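TRPML1-DL cells, Tet-induced overnight (~16 h, 37 °C) at 1,500 cells/well, were loaded with Ca8 no-wash dye plus quencher for 45-90 min at room temperature. Compounds were pinned during FDSS kinetic reading; agonist 54-4 at EC80 (4 uM final) then added.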
TRPML1 ag: human mucolipin-1 channel agonism | TRPML1-expressing cells, Ca2+ dye fluorescence, FDSS; host cell line not named in the record; reference of the full effect not given here | hit rate 0.12% among 410,000 | activation, % (concentration not given with the values); in the data active = activation above about 50%; inconclusive = about 30% to 50%; inactive = below about 30%; note: 0% is about no effect; the text of the record puts the active cut at 80%
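Tet-induced TRPML1-DL cells, 1,500 per well, cultured overnight, were loaded with a no-wash Ca2+ dye for 45–90 min. Calcium fluorescence was recorded on the FDSS for 110 s after compound addition, before the EC80 agonist (4 uM 54-4) was added.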
An asterisk follows results filed as active; ? = inconclusive; . = not tested or not shown; [ ] = remark or other dose.

Each structure is followed by: gsp agonist	Menin MLL FP FL	ClpP mod	gsp antagonist	TRPML1 blocker	TRPML1 ag
1	O=C(COC(=O)CNC(=O)c1ccccc1)Nc1cccc(Br)c1
    -6.0%[15.4 µM]	-3.9	-1.5%	1.3%	4.6	0.1
2	CC(=O)Nc1ccc(NC(=O)C(C)Sc2nc3nc(C)cc(C)n3n2)cc1 (stereo not drawn)
    22.5%	.	0.2%	4.4%	3.7	-0.1
3	CCOC(=O)CCCCC(=O)c1[nH]c(=O)[nH]c1CSc1nc(C)cc(=O)[nH]1
    -4.2%	-3.0	0.5%	5.6%	-5.0	-0.6
4	CCCS(=O)(=O)NC(=O)C1(C)CCN(C(=O)CSc2ccccc2)C1 (stereo not drawn)
    .	.	-2.5%	.	-5.4	0.0
5	Cc1ccc(Nc2cc(C(=O)NCCCN3CCOCC3)c3ccccc3n2)c(C)c1
    23.9%	0.5	.	3.4%	-7.1	-0.2
6	CCOC(=O)c1ccc2c(c1)N(Cc1cccc(C(F)(F)F)c1)C(=O)c1ccccc1S2(=O)=O
    .	.	-3.4%	.	9.5	2.2
7	COc1ccc(/C(O)=C2/C(=O)C(=O)N(CCCN(C)C)C2c2cccc(Cl)c2)cc1OC (stereo not drawn)
    ?	5.0	-4.6%	34.3%[activator]	-18.1	1.8
8	O=S(=O)(/C=C/c1ccccc1)c1ccccc1
    1.1%	1.2	0.1%	4.7%	-5.6	-0.2
9	Cc1cc(C)c2nc(N(CCCN(C)C)C(=O)c3ccc4c(c3)CCCC4)sc2c1
    -9.5%[15.4 µM]	.	3.3%	11.1%	9.3	-0.2
10	O=C(Nc1ccncc1)c1cc(S(=O)(=O)N2CCOCC2)ccc1Cl
    18.6%	.	-0.5%	6.7%	-6.8	0.3
11	CC(=O)Nc1ccc(SCC(=O)NC(=O)c2ccc(S(=O)(=O)N(C)C)cc2)cc1
    12.0%[15.4 µM]	.	-11.7%	-13.1%	8.4	0.2
12	CCOC(=O)/C(=N\Nc1ccccc1)S(=O)(=O)c1ccccc1
    -7.8%	1.7	0.7%	-14.1%	21.2	3.9
13	Cc1cc(C)nc(Sc2ncnc3sc4c(c23)CCC4)n1
    -8.9%	5.9	12.6µM*	-11.4%	-3.2	-0.2
14	COc1ccc(CCNC(=O)c2cc(-c3ccccn3)nc3c(Cl)cccc23)cc1OC
    -5.8%[15.4 µM]	-0.3	.	4.1%	-13.1	-0.6
15	Cc1nn(CC(=O)N2CCCc3ccccc32)c(C)c1[N+](=O)[O-]
    -3.2%	-5.6	-0.7%	7.8%	11.4	4.0
16	Cc1ccc(CN2C(=O)N(c3ccccc3)C(=O)C2CC(=O)Nc2ccccc2)cc1 (stereo not drawn)
    .	.	-0.5%	.	-5.9	-0.4
17	CC(C)(C)NC(=O)NC(=O)COC(=O)c1ccc(OC(F)F)cc1
    -70.7%[inhibitor]	1.9	?	2.7%	-23.7	-0.4
18	Cc1ccc(C)c(S(=O)(=O)N2CCN(C(=O)Cc3ccc(S(=O)(=O)N4CCOCC4)s3)CC2)c1
    16.9%	.	1.4%	-4.2%	-11.2	-0.8
19	COc1ccc(-c2nc(CS(=O)(=O)CC(=O)Nc3ccc(Cl)cc3)c(C)o2)cc1
    -7.7%	8.6	-5.5%	-7.7%	-12.3	1.2
20	O=C(NO)c1ccc(OC(F)F)cc1
    -1.3%	2.1	1.6%	-2.8%	6.6	0.2
21	O=C(Nc1ccc2c(c1)OCO2)c1cc(-c2cccc(O)c2)on1
    7.7%[15.4 µM]	-2.3	.	0.5%	28.7	-0.1
22	COc1ccc(C(=O)CSc2nnc3n2CCCN3C(=O)Nc2ccccc2)cc1
    27.5%	-0.9	.	-4.4%	3.5	0.8
23	COC(=O)C1CCN(C(=O)COc2ccc(N(C)S(=O)(=O)c3ccc(C)cc3)cc2)CC1
    14.2%	.	-1.8%	-8.6%	-19.0	2.7
24	CCN(CC)C(=O)Cc1cc(C(=O)O)c2ccccc2n1
    -1.1%	-0.7	-4.0%	0.3%	11.2	0.6
25	Cc1ccsc1C1C(C#N)=C(N)OC2=C1C(=O)CC(C)(C)C2 (stereo not drawn)
    -10.2%[15.4 µM]	2.0	.	-26.7%	-7.1	1.0
26	CCOc1cc(NC(=S)NCCc2ccccc2)c(OCC)cc1NC(C)=O
    -0.2%[15.4 µM]	-0.2	.	-11.1%	8.8	-0.3
27	COC(=O)c1cc2c(ccn2-c2ccc(F)cc2)n1Cc1ccc(OC)cc1
    36.6%[15.4 µM]	-0.2	22.4µM*	-5.4%	8.4	1.5
28	O=C(N/N=C/c1cccnc1)c1cc(-c2ccc(Cl)cc2)nc2ccccc12
    -3.1%	.	-0.6%	-4.1%	3.9	-0.5
29	CCc1nc2ccccc2c(=O)n1/N=C/c1ccc(Cl)cc1
    5.4%[15.4 µM]	.	.	-8.5%	67.7	3.0
30	COc1ccccc1CC(=O)NNS(=O)(=O)c1ccc([N+](=O)[O-])cc1
    -18.6%	-0.9	1.8%	5.6%	-6.0	0.2
31	CC1(NC(=O)/C=C/c2nc3ccccc3s2)CCS(=O)(=O)C1 (stereo not drawn)
    18.8%	.	-26.8%	3.3%	-11.8	-0.7
32	O=C(NCC(c1ccco1)N1CCN(c2ccccc2F)CC1)c1cccs1 (stereo not drawn)
    -9.6%[15.4 µM]	.	-1.2%	2.2%	-1.6	-0.6
33	C/C(Cn1cnc([N+](=O)[O-])n1)=N\NC(=O)c1cccnc1
    4.2%	4.6	-0.5%	3.6%	6.2	0.1
34	CC(=O)Nc1ccc(NC(=O)CC23CC4CC(CC(C4)C2)C3)cc1
    10.6%	.	.	5.5%	-17.5	1.3
35	CC1=C(C(=O)N2CCOCC2)CC(CC(=O)NC2CCCCC2)C(=O)N1CCCN1CCCC1=O (stereo not drawn)
    -19.6%	.	2.0%	.	1.4	-0.1
36	c1ccc(-c2ccncn2)cc1
    0.3%	.	.	12.2%	-3.2	-0.1
37	C=CCNCCCCOc1cccc(Br)c1
    -5.0%[15.4 µM]	-0.7	.	4.6%	-17.8	2.9
38	CN(Cc1ccc(F)cc1)C(=O)COc1ccccc1-c1ccccc1
    0.0%	7.4	-26.5%	-2.8%	7.4	3.1
39	COc1ccccc1CNC(=O)c1ccc(S(=O)(=O)N2CCCC2)cc1
    -31.5%	-5.3	0.6%	4.3%	7.3	-0.5
40	Cc1ccc(C(=O)Cn2nnc3ccccc32)cc1
    -0.2%	4.8	-1.4%	-6.0%	-3.0	-1.3
41	COc1ccc([C@@H](C)NC(=O)CCc2nnc(-c3cc(C)on3)o2)cc1
    -24.9%[15.4 µM]	0.0	2.8%	-11.0%	-6.3	-0.2
42	Cc1ccccc1NC(=O)CSc1nc2nccnc2c(=O)n1CCc1c[nH]c2ccccc12
    .	.	-0.1%	.	7.1	1.3
43	CN(C)C(CNC(=O)c1ccc2c(c1)S(=O)(=O)c1ccccc1C2=O)c1ccco1 (stereo not drawn)
    -2.1%	6.4	-0.6%	12.8%	20.0	2.6
44	CC(C)C[C@@H](CN1CCC[C@@H]1CN1C(=O)C(=O)NC[C@@H]1Cc1ccccc1)N1C[C@H](Cc2ccc(O)cc2)N(CC2CCCCCC2)C(=O)C1=O
    .	.	-0.6%	-19.3%	-15.8	-0.5
45	CCC(=O)Nc1ncc2c(n1)CC(c1ccco1)CC2=O (stereo not drawn)
    14.2%	-2.7	-1.9%	2.1%	-22.8	-0.4
46	CCCCS(=O)(=O)Nc1ccc(C)cn1
    -24.1%	-3.3	?	19.5%	5.9	3.8
47	COc1ccc(/C=C/c2cc[n+](C(=O)Cc3ccccc3)cc2)cc1
    -9.5%[15.4 µM]	16.4	.	7.9%	-11.4	-0.4
48	CS(=O)(=O)N(CC(=O)N1CCCCCC1)c1ccc(Cl)cc1
    -7.0%	1.6	-0.2%	11.1%	-16.9	-0.1
49	COc1ccc(-n2nc(C(=O)NCC(=O)N3CCCC(C)C3)c3ccccc3c2=O)cc1Cl (stereo not drawn)
    -27.1%	0.0	.	-21.1%	8.5	1.5
50	CC1CC(C)CN(C(=O)COC(=O)Cc2c[nH]c3ccccc23)C1 (stereo not drawn)
    11.2%	.	-2.2%	-0.2%	-0.4	0.1
51	Cc1ccccc1Cn1cnc2ccccc21
    2.0%[15.4 µM]	-1.3	.	-8.6%	-15.1	-1.2
52	Oc1ccccc1C=NNC(=S)Nc1ccc(F)cc1
    -27.7%	.	.	-6.9%	-7.4	2.0
53	CCOC(=O)c1ccc2c(c1)N(Cc1ccc(F)cc1Cl)C(=O)c1ccccc1S2
    .	.	-2.1%	.	30.9	1.7
54	Cc1cc(C(=O)N2CCN(c3ccc([N+](=O)[O-])cc3)CC2)c(C)o1
    0.6%	-2.0	-2.3%	-6.4%	-1.5	0.5
55	CC1CCc2cc(F)ccc2N1C(=O)c1cccnc1 (stereo not drawn)
    -30.3%[inhibitor]	0.9	.	2.3%	-14.1	-0.6
56	COc1ccc(CCC(=O)N2CCCC(Nc3ccccc3)C2)cc1OC (stereo not drawn)
    -5.8%[15.4 µM]	-2.9	.	1.9%	-8.3	0.1
57	CCO/C=N/Nc1nc(C(F)(F)F)nc2c1cnn2Cc1ccccc1
    15.6%	8.9	-3.3%	-2.3%	14.9	1.5
58	CCOC(=O)c1c(NC(=O)/C=C/c2ccc(OCC)cc2)sc2c1CCCC2
    .	.	1.3%	.	10.2	4.4
59	Cc1cccc(CN2CCN(C(=O)CN(C)C(C)C(=O)Nc3ccc(C(N)=O)cc3)CC2)c1 (stereo not drawn)
    ?	.	1.4%	-3.1%	6.7	-0.3
60	O=c1[nH]c(CN2CCOCC2)nc2ccccc12
    -11.6%	1.0	.	1.2%	41.9	-0.6
61	CCCNc1nc(OC(C(F)(F)F)C(F)(F)F)nc(OC(C(F)(F)F)C(F)(F)F)n1
    24.2%	-0.3	-1.0%	-0.1%	2.6	3.4
62	CCOC(=O)c1oc2ccccc2c1NC(=O)c1cccc(OC)c1OC
    -5.7%	0.9	?	-4.9%	-2.6	1.3
63	Cc1c2c(nc3c(C(=O)NC4CCCC4)cnn13)CCCC2
    ?	3.4	7.08µM*	6.2%	20.3	1.3

From PubChem
